Screening results deposited in PubChem by several laboratories.
Mtb growth: M. tuberculosis H37Rv growth inhibitors, H37Rv strain (AID 1626) | M. tuberculosis H37Rv growth inhibition; higher % means a stronger effect | inhibition, % at 10 µM; hits with a dose series show IC50 in µM | 220,000 tested, 0.95% active;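 active means confirmed in a dose series; inconclusive means inhibition above 80% but not taken into the dose series; inactive means below 80% or under 30% at every dose of the series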;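 further: bacteria incubated seven days before Alamar blue readout; 0% = bacteria only wells and 100% = bacteria with antibiotic wells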
Mtb bLac sens: beta-lactam sensitization of Mtb H37Rv, H37Rv. M. tuberculosis H37Rv growth with meropenem, percent inhibition; hits of this screen are not shown here. 330,000 tested, 0.27% active. inhibition, % at 25 µM. AID 434955, 2010;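 active means about 74% or more and at least 40 points above the plate without the antibiotic, then above 30% in a dose series; inconclusive means first-round hits that could not be retested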;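 further: growth measured after seven days incubation then overnight dye step; 0% = bacteria only wells and 100% = bacteria with antibiotic; twin plates without the antibiotic show which effects depend on it; some results filed as inactive read as strong as hits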
Arbovirus inh: antivirals against arbovirus infection, primary screen, cell-based, full library, 10K replicate subset. arbovirus infection cell-based antiviral screen. inhibition, % at 10 µM. 200,000 tested, 0.37% active;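 active means inhibition from about 30%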;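 further: bluetongue infection of BSR cells; cell survival read as ATP light after 72 h; 0% = infected wells without compound and 100% = uninfected wells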
YopH PTP inh: YopH tyrosine phosphatase inhibitors, primary screen, biochemical, fluorescence Ex485/Em525; AID 898, 2007; YopH tyrosine phosphatase [Yersinia enterocolitica]; 140,000 tested, 0.16% active; inhibition, %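 (about 10 µM by stock and volumes)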;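 active means inhibition of 50% or more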;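 further: controls were vehicle for no effect and minimum signal wells for full effect; inactives centre near -20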
RecA splice inh: Mtb RecA intein splicing inhibitors, primary screen, biochemical, fluorescence, HTS. inhibition, %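 (about 9 µM by stock and volumes)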. Protein RecA (Mycobacterium tuberculosis (strain ATCC 25618 / H37Rv)), P9WHJ3. 290,000 tested, 0.75% active. cell-free RecA intein splicing; in the data active means inhibition above about 30%; inconclusive means no clear call, values can overlap the other calls;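 further: 0% = vehicle wells and 100% = reference inhibitor control wells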
Target sequence (P9WHJ3 whole entry, looked up, canonical isoform): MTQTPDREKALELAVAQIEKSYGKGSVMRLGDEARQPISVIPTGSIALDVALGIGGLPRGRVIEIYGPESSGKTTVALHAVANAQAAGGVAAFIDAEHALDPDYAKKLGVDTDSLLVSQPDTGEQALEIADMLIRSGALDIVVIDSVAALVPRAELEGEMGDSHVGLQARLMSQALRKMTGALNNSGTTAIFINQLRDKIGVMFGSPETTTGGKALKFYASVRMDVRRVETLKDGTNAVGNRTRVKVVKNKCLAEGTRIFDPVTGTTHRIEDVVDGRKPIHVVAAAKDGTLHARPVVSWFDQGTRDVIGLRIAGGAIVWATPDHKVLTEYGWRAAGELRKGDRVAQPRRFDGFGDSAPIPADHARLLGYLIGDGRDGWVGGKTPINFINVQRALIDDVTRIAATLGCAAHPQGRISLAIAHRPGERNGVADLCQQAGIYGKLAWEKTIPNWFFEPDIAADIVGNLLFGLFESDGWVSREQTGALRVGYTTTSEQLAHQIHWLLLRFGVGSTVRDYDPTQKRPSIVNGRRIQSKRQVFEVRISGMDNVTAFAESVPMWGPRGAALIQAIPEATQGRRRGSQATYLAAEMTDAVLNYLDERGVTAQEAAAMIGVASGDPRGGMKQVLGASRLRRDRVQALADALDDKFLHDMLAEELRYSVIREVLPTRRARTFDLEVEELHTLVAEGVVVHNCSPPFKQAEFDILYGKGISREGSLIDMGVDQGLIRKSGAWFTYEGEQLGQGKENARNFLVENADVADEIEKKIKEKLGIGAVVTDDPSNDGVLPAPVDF
Arbovirus inh repeat: also measured in Arbovirus inh; calls as there; inhibition, %; measured here: 10K subset replicate screen; many hits read low in the repeat;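 first of two repeat runs on a subset; 0% = infected and 100% = uninfected wells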
An asterisk follows results filed as active; u = inconclusive; x = not tested or not shown; & = joins results of further samples.

SMILES	Mtb growth	Mtb bLac sens	Arbovirus inh	YopH PTP inh	RecA splice inh	others
O=C1C2C3C=CC(C3=C(c3ccccc3)c3ccccc3)C2C(=O)N1CCO (stereo not drawn)	0%	3	1	13	0.9
CSc1ncccc1C(=O)N1CCN(S(=O)(=O)c2cc(C)ccc2C)CC1	x	-4	x	x	0.2
CC(C)(C)c1ccc(CS(=O)(=O)CC(O)CN2CCCC2=O)cc1 (stereo not drawn)	x	-2	x	x	-4.8
Nc1c2c(nc3c1CCC3)CCCC2	-7%&6%	-7	-2	x	2.3
CC1(C)Cc2ccccc2C(N/N=C/c2ccc([N+](=O)[O-])cc2)=N1	4%	2	1	x	-1.1
COc1cccc(N2CC(C(=O)Nc3nnc(SCC(=O)Nc4cc(C)on4)s3)CC2=O)c1 (stereo not drawn)	4%	6	-2	x	-0.6
CSc1ccc(/C=N/S(=O)(=O)c2ccccc2)cc1	x	-5	x	x	-1.3
O=C(OCC(=O)N1CCN(c2ccccc2)CC1)c1ccc2ccccc2n1	9%	98	2	-35	3.4
CN(CC(=O)Nc1ccc(Cl)c(C(F)(F)F)c1)C(=O)C1CCC1	x	-13	x	x	-0.1
Brc1cccc(CN2CCN(c3ncccn3)CC2)c1	x	1	x	x	-2.4
Cc1cc(C(=O)CSc2nncn2C)c(C)n1-c1ccccc1	7%	1	-2	x	2.0
C/C(=N\NC(=O)c1ccccc1F)c1cccc(NC(=O)c2ccccc2)c1	x	5	x	x	1.3
COc1ccc(NS(=O)(=O)c2cccc(NC(=O)c3ccccn3)c2)cc1	-2%	-9	x	x	-2.5
CC(=O)Nc1ccc(N2C(=O)C3C4CC(=O)C(c5ccccc54)C3C2=O)cc1 (stereo not drawn)	0%	5	6	-22	-3.7
Cc1ccc2c(c1)c1ncnc(N3CCC4(CC3)OCCO4)c1n2C	-2%	x	-3	-33	x
O=c1sc2ccccc2c(N2CCCC2)c1[N+](=O)[O-]	6%	-3	1	x	-0.4
CCc1ccc2c(Cl)c(C(=O)N/N=C/c3c[nH]c4ccccc34)sc2c1	6%	13	-35	-25	4.2
O=C(O)C1Cc2ccccc2N2CCCC12 (stereo not drawn)	x	2	x	x	-7.2
Cc1ccc(S(=O)(=O)CCSc2n[nH]c(=O)n2-c2ccc3c(c2)OCCO3)cc1	x	36	x	x	0.8
CCOC(=O)NC(NCc1ccccc1Cl)(C(F)(F)F)C(F)(F)F	-10%	0	-2	-18	1.6

Sorted by molar mass (rising): some entries from above.
SMILES	Mtb growth	Mtb bLac sens	Arbovirus inh	YopH PTP inh	RecA splice inh	others
Brc1cccc(CN2CCN(c3ncccn3)CC2)c1	x	1	x	x	-2.4
CC(C)(C)c1ccc(CS(=O)(=O)CC(O)CN2CCCC2=O)cc1 (stereo not drawn)	x	-2	x	x	-4.8
O=C(OCC(=O)N1CCN(c2ccccc2)CC1)c1ccc2ccccc2n1	9%	98	2	-35	3.4

Further structures.
SMILES	Mtb growth	Mtb bLac sens	Arbovirus inh	YopH PTP inh	RecA splice inh	others
O=C(CNC(=S)N(CCCN1CCOCC1)Cc1cccs1)N1CCCC1	4%	-4	10	x	0.1
COc1ccc(-c2cc(C(F)(F)F)nc(SCC(=O)Nc3cc(C)on3)n2)cc1	-8%	-9	-12	-3	0.7
O=C(NCCCn1ccnc1)C(=O)NCC1OCCN1S(=O)(=O)c1ccc(F)cc1 (stereo not drawn)	2%	-1	-4	-33	0.7
CC1(C)CC(=NOC(=O)c2ccccc2)CC(C)(C)N1O	8%	-6	-9	-18	-1.0
COCCn1ccc2c(OCC(=O)NCCc3ccccc3)cccc2c1=O	x	-7	x	x	-0.4
Cc1ccc(/C=N/N2CCN(c3ccccc3)CC2)cc1	-2%	7	-8	x	-0.7
N#Cc1nc(COc2ccccc2Cl)oc1NCc1ccc(F)cc1	-5%	-6	8	-52	10
O=C(CCn1nnc2ccccc2c1=O)N[C@H](C(=O)O)c1ccccc1	-7%	-9	0	-6	2.9
CCOC(=O)c1c(Nc2ccccc2OCCOC)n[nH]c1C	16%	7	x	x	0.6
O=[N+]([O-])c1ccc(OCCOCCOc2ccc([N+](=O)[O-])cc2)cc1	10%	0	x	x	-1.6
O=C(Nc1cccc(NC(=O)c2ccc(-c3ccc(Br)cc3)o2)c1)c1ccccc1	48%	78	-7	-65	-0.1
CCOCCCN(CCC#N)C(=O)C1CCN(S(=O)(=O)c2ccc(-n3cnnn3)cc2)CC1	x	-4	x	x	-0.7
COc1ccccc1-n1c(SCC(=O)N2CCCCC2)nc(O)c(Cc2ccccc2)c1=O	x	-7	x	x	-2.8
COc1ccc(C2(CNS(=O)(=O)c3ccc(C)cc3)CCOCC2)cc1	-5%	-13	x	x	1.5
C/C(=N\NC(=O)CCCNc1ccc(C)cc1)c1ccccn1	u	98	-33	1	-4.1
O=C(NCCSc1ccccc1)c1cccnc1	-10%	-6	6	-4	0.4
COc1cc(C(=S)N2CCOCC2)ccc1OC(=O)c1cc([N+](=O)[O-])cc([N+](=O)[O-])c1	0%	0	-1	-15	1.0
O=C(c1cccc(F)c1)N1CCN(S(=O)(=O)c2ccccc2)CC1	-4%	4	12	-37	-8.6
Cc1ccc(Nc2nc(-c3cccs3)cs2)nc1	2%	14	14	x	9.3
CCc1ccc(CC2S/C(=C(\C#N)C(C)=O)NC2=O)cc1 (stereo not drawn)	-4%	-2	33*	-35	4.2
O=S(=O)(NCc1ccco1)c1cnc(Cl)c(Cl)c1	11%	-6	x	x	0.0
O=S(=O)(NC1CCCCC1Sc1ncccn1)c1ccccc1 (stereo not drawn)	23%	2	0	-33	-0.8
O=C(CCN1CCCCC1)Nn1c(=S)[nH]c2ccccc2c1=O	4%	-3	-2	1	-2.4
O=C(Nc1ccc(S(=O)(=O)N2CCCCC2c2cccnc2)cc1)c1c(F)cccc1F (stereo not drawn)	0%	-6	-10	x	1.6
CCCN1C2CCCC1CC(NC(=O)NC13CC4CC(CC(C4)C1)C3)C2 (stereo not drawn)	x	7	x	x	2.3
Cc1cc(NC(=O)CN2CCN(c3ccc(O)cc3)CC2)no1	1%	4	7	-153	-13
COc1ccccc1N1CCN(C(=O)c2sc3nc(C)nc(N4CCN(c5ccccn5)CC4)c3c2C)CC1	x	92	x	x	18
Cc1c(OC(C)C(=O)N2C[C@H]3C[C@@H](C2)c2cccc(=O)n2C3)ccc2c3c(c(=O)oc12)CCC3 (stereo partly drawn)	x	-3	x	x	7.2
O=Cc1c(OCc2ccccc2)ccc2ccccc12	14%	6	11	x	1.5
Cn1c(Oc2ccc(F)cc2)c(C=O)c2ccccc21	17%	1	-9	x	10
CN(C)C(CNC(=O)c1ccccc1OCc1ccc(Cl)cc1)c1ccco1 (stereo not drawn)	x	2	x	x	3.2
COc1ccc2cc3[n+](cc2c1OC)CCc1cc2c(cc1-3)OCO2	0%	4&-2	9	-1	-1.3
O=[N+]([O-])c1ccccc1N/N=C/c1ccccc1	x	0	x	x	-0.7
CCCc1cc(=O)oc2cc(C)cc(OCC(=O)NCCN3CCOCC3)c12	x	4	x	x	-2.1
CCOc1cc(-c2noc(N)c2C#N)cc(OCC)c1OCC	x	-2	2	8	-1.3
O=C(Nc1ccc(Cl)cc1)Nc1nnc(CSCc2ccccc2)s1	5%	2	15	-46	-3.8
CCCCN(C)C(=S)Nc1ccc(Oc2ccccc2)cc1	16%	0	22	-10	6.8
Cc1ccccc1NC(=O)CCCCCN1C(=O)[C@@H]2Cc3ccccc3CN2C1=O	x	-6	x	x	-2.9
O=C(NN1CC(C(=O)OCc2ccc(Br)cc2)CC1=O)c1ccccc1 (stereo not drawn)	x	3	x	x	2.4
CCSc1nc2sc3c(c2c(=O)[nH]1)CC(C)(CC)OC3 (stereo not drawn)	-7%	14	-7	13	-2.2
CCOc1ccccc1N(CC)C(=O)Cn1ncc2c(=O)oc3ccccc3c21	5%	-2	-4	-43	5.2	Arbovirus inh repeat=-1
O=C(N/N=C/c1ccc(N2CCOCC2)o1)c1cccc([N+](=O)[O-])c1	12%	51	-6	-4	5.3
Cc1ccc(OCC(=O)N2CCN(Cc3ccc4c(c3)OCO4)CC2)cc1	4%	-4	2	x	-0.5
Cc1cc2occ(CC(=O)NC3=NCCS3)c2cc1C(C)C	-7%	2	4	-21	-0.3
CCC(C(=O)NC(C)(C)C)N(C(=O)Cn1nnc(-c2ccccc2F)n1)c1cccc2c1CCCC2 (stereo not drawn)	-2%	14	-12	-23	-1.9
N#Cc1c(Nc2ccccc2)sc(C(=O)c2ccccc2)c1N	1%	-13	-25	-37	3.0
CCNC(=S)N1CCN(C(=O)C(Cc2ccccc2)NC(C)=O)CC1 (stereo not drawn)	2%	-5	4	x	-2.0
Cc1nnc2sc(SCc3ccccc3)nn2c1=O	0%	-10	16	-19	-4.5
Cc1ccc(NC(=O)C2CCCN(S(=O)(=O)c3ccc4[nH]c(=O)ccc4c3)C2)nc1 (stereo not drawn)	x	4	x	x	-0.3
CCn1cc(NC(=O)Nc2ccc(OC)c(OC)c2)c(C(N)=O)n1	-9%	-6	-6	9	3.0
CCCCOc1ccc(C(=O)N2CCNC(=O)C2)cc1	x	-3	x	x	-0.4
Cc1[nH]nc2ncc(C(=O)c3cc(Cl)cc(Cl)c3O)cc12	6%	-7	24	-3	1.6
CCCCN(C)CCn1c(=S)[nH]c2ncccc2c1=O	-2%	-10	-8	-18	-2.3
CCOC(=O)Cn1nc(C)n(-c2ccc(C(C)(C)C)cc2)c1=O	-7%	-4	2	-22	-0.7
Cc1ccc(C(=O)CSc2nnc(Cn3nnc4ccccc43)n2C)cc1	-3%	8	-1	-7	-0.6
Cc1nnc(Nc2ccc(F)cc2)c2ccccc12	x	2	x	x	1.5
COc1ccc(-c2[nH]ncc2CNC(C)CCn2cccn2)cc1F (stereo not drawn)	1%	1	-7	x	0.2
CCS(=O)(=O)Nc1cccc(C2=NN(C(=O)c3ccco3)C(c3ccco3)C2)c1 (stereo not drawn)	x	4	x	x	1.1
CC(C)[C@@H](COc1ccccc1)N1CCN(Cc2ccccc2)CCC1=O	x	0	x	x	0.3
O=C(Nc1ccc(F)cc1F)c1cc(-c2ccco2)nc2ccccc12	x	-1	x	x	-1.8

Further structures.
SMILES	Mtb growth	Mtb bLac sens	Arbovirus inh	YopH PTP inh	RecA splice inh	others
COC(=O)c1ccccc1NC(=O)CSc1nc(O)cc(=O)n1C1CCCC1	-6%	0	17	-20	-2.8
CSc1nsc(SCC(=O)Nc2cccc(NC(C)=O)c2)n1	x	2	x	x	2.3
O=C(Cc1ccccc1)Nc1nc(-c2cccs2)cs1	7%	15	0	-25	8.3
CCN=C1SC(C(=O)NCCc2ccccc2)CC(=O)N1CC (stereo not drawn)	4%	-7	-8	0	-0.2
O=[N+]([O-])c1ccc(-c2ccc(/C=N/c3c(-c4ccco4)nc4ccccn34)o2)c(Cl)c1	x	x	-12	2	0.4
Nc1nnc(CC(=O)N/N=C/c2ccc(-c3cccc(C(=O)O)c3)o2)s1	-1%	5	x	x	x
CCS(=O)(=O)n1nc(-c2cccnc2)nc1NCc1ccc(F)cc1	7%	0	-2	x	3.7
C/C(=N\NC(N)=S)C1=CCC2C3CC[C@H]4CC(O)CC[C@]4(C)C3CC[C@]12C (stereo partly drawn)	x	-7	x	x	-3.6
Cc1cc(CNC(=O)CC2C(=O)NCCN2CC(C)(C)C)nn1C (stereo not drawn)	-3%	-1	-1	x	1.2
Cc1ccc(NC(=O)c2c([N+](=O)[O-])c(C(C)(C)C)nn2C)c(C)c1	5%	0	8	6	4.1
CN(C)S(=O)(=O)c1ccc(C(=O)NCCOc2ccc(F)cc2)cc1	2%	-5	3	-11	-4.5
N#Cc1ccc(CSc2nnc3[nH]c(=O)cc(N)n23)cc1	-4%	-5	-3	x	-0.4
Cc1nnc(NC(=O)CSc2nc(C(C)C)nc3sc(C)c(C)c23)s1	-9%	x	-1	-27	x
NC(=O)c1ccc(N2CCN(c3ccccc3O)CC2)c([N+](=O)[O-])c1	-4%	-7	-1	x	-0.4
Cc1nc(C(=O)NNC(=O)Nc2ccc(Cl)cc2)cs1	-5%	-3	x	x	1.4
O=C(NCCN1CCCCC1)c1ccc2c(c1)OCCO2	3%	-4	4	-59	-1.3	Arbovirus inh repeat=3

Entries listed so far that contain bromine:
SMILES	Mtb growth	Mtb bLac sens	Arbovirus inh	YopH PTP inh	RecA splice inh	others
Brc1cccc(CN2CCN(c3ncccn3)CC2)c1	x	1	x	x	-2.4
O=C(Nc1cccc(NC(=O)c2ccc(-c3ccc(Br)cc3)o2)c1)c1ccccc1	48%	78	-7	-65	-0.1
O=C(NN1CC(C(=O)OCc2ccc(Br)cc2)CC1=O)c1ccccc1 (stereo not drawn)	x	3	x	x	2.4

Only part of the results is shown; count on the stated rates, not on these rows.
